Arbovirus inh = blocks arbovirus infection; hit rate 0.37% among 200,000; inhibition, % at 10 µM; arbovirus infection cell-based antiviral screen; AID 1251;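 active = inhibition from about 30%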;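 note: bluetongue infection of BSR cells; cell survival read as ATP light after 72 h; 0% = infected wells without compound and 100% = uninfected wells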
YopH inh = blocks Yersinia enterocolitica YopH tyrosine phosphatase. fluorescence Ex485/Em525. inhibition, %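 (about 10 µM by stock and volumes)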. hit rate 0.16% among 140,000;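 active = inhibition of 50% or more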;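 note: controls were vehicle for no effect and minimum signal wells for full effect; inactives centre near -20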
Mtb bLac sens = beta-lactam sensitization of Mtb H37Rv; hit rate 0.27% among 330,000; AID 434955; inhibition, % at 25 µM; M. tuberculosis H37Rv growth with meropenem, percent inhibition; hits of this screen are not shown here;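 active = about 74% or more and at least 40 points above the plate without the antibiotic, then above 30% in a dose series; inconclusive = first-round hits that could not be retested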;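 note: growth measured after seven days incubation then overnight dye step; 0% = bacteria only wells and 100% = bacteria with antibiotic; twin plates without the antibiotic show which effects depend on it; some results filed as inactive read as strong as hits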
Mtb H37Rv = M. tuberculosis H37Rv growth inhibitors, H37Rv strain (AID 1626) | one-dose inhibition, % at 10 µM; IC50 in µM for titrated hits | M. tuberculosis H37Rv growth inhibition; higher % means a stronger effect | hit rate 0.95% among 220,000;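 active = confirmed in a dose series; inconclusive = inhibition above 80% but not taken into the dose series; inactive = below 80% or under 30% at every dose of the series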;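 note: bacteria incubated seven days before Alamar blue readout; 0% = bacteria only wells and 100% = bacteria with antibiotic wells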
RecA splice inh = inhibitors of M. tuberculosis RecA intein splicing; P9WHJ3; cell-free RecA intein splicing, fluorescence; hit rate 0.75% among 290,000; inhibition, %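 (about 9 µM by stock and volumes)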; in the data active = inhibition above about 30%; inconclusive = no clear call, values can overlap the other calls;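 note: 0% = vehicle wells and 100% = reference inhibitor control wells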
Target sequence (P9WHJ3 whole entry, looked up, canonical isoform): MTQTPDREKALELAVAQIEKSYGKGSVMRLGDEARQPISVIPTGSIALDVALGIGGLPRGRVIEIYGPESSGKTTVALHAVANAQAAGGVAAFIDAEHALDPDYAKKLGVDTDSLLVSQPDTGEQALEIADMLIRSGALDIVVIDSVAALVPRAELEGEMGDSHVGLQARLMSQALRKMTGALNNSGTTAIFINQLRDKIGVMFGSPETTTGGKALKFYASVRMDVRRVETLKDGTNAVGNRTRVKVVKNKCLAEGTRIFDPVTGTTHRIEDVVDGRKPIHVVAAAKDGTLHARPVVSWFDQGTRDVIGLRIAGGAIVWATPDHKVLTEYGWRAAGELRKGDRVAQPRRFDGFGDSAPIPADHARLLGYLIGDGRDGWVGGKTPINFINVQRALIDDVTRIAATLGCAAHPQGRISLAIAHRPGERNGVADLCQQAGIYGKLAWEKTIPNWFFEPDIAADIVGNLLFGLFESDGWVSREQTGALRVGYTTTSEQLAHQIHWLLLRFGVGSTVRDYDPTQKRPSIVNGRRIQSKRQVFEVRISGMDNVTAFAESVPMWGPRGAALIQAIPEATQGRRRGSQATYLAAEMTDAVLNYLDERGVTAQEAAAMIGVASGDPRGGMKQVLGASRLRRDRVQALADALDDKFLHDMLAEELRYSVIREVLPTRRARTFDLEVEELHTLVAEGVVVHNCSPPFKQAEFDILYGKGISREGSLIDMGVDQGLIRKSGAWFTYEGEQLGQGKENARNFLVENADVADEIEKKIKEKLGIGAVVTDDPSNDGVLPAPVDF
Arbovirus inh repeat = recorded beside Arbovirus inh, whose call it bears; inhibition, %; measured here: 10K subset replicate screen; many hits read low in the repeat;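 first of two repeat runs on a subset; 0% = infected and 100% = uninfected wells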
Numbers without * were called inactive; ? = inconclusive; . = no result given. A portion of the library; the hit share may differ from the screen's.

SMILES	Arbovirus inh	YopH inh	Mtb bLac sens	Mtb H37Rv	RecA splice inh	others
O=C(CSc1nnc(C2CC2)n1-c1ccccc1)Nc1ccc(N2CCOCC2)cc1	7	-13	-2	-10%	-3.5
COC(=O)c1ccc(/C=N/NC(=O)CC(=O)NCC(C)C)cc1	10	-13	-10	1%	-1.4
Nc1ccc(O)cc1C(=O)OCC(=O)C12CC3CC(CC(C3)C1)C2	3	-43	-1	-10%	.
COc1ccc2oc(-c3ccco3)cc(=O)c2c1	-5	.	3	6%	-1.9
Cc1cc(C)c2cc3c(ccn3C3OC[C@H](O)[C@H](O)[C@H]3O)cc2n1 (stereo partly drawn)	13	9	-13	8%	-42
COc1ccc(C(CNC(=O)C(CCSC)NC(=O)c2ccccc2Cl)N2CCOCC2)cc1 (stereo not drawn)	.	.	-3	.	7.6
CC(=O)NS(=O)(=O)c1cccnc1Nc1cccc(Cl)c1C	2	-36	16	-9%	0.4
COc1ccc(CNC(=O)CN2CCN(c3ccc(F)cc3)CC2)cc1	.	.	-3	.	-0.3
Cc1ccc(OS(=O)(=O)c2ccc(N3C(=O)CCC3=O)cc2)cc1	.	.	-8	.	16
Cc1cccc(NC(=S)Nc2ccccn2)c1	.	.	5	19%	0.9
Cc1cccc2cc(C3CC(c4ccco4)=NN3S(C)(=O)=O)c(Cl)nc12 (stereo not drawn)	.	.	-3	20%	5.5
Cc1ccc(NC(=O)CSc2ncc3ccccn23)cc1	-1	.	-4	3%	.
Cc1cccc(Oc2sc(C(=O)c3ccccc3)c(N)c2C#N)c1C	-9	-32	-4	.	1.8
CCn1c(SCC(=O)NC2CCCCC2)nnc1C(C)NC(=O)c1ccccc1F (stereo not drawn)	.	.	5	.	-1.4
Cc1ccc(C(=O)CNc2ccc(F)cc2)cc1	-8	-19	2	-10%	-0.5

Grouped by structure: the compounds so far containing a halogen (six)
SMILES	Arbovirus inh	YopH inh	Mtb bLac sens	Mtb H37Rv	RecA splice inh	others
COc1ccc(C(CNC(=O)C(CCSC)NC(=O)c2ccccc2Cl)N2CCOCC2)cc1 (stereo not drawn)	.	.	-3	.	7.6
CC(=O)NS(=O)(=O)c1cccnc1Nc1cccc(Cl)c1C	2	-36	16	-9%	0.4
COc1ccc(CNC(=O)CN2CCN(c3ccc(F)cc3)CC2)cc1	.	.	-3	.	-0.3
Cc1cccc2cc(C3CC(c4ccco4)=NN3S(C)(=O)=O)c(Cl)nc12 (stereo not drawn)	.	.	-3	20%	5.5
CCn1c(SCC(=O)NC2CCCCC2)nnc1C(C)NC(=O)c1ccccc1F (stereo not drawn)	.	.	5	.	-1.4
Cc1ccc(C(=O)CNc2ccc(F)cc2)cc1	-8	-19	2	-10%	-0.5

Continuation:
SMILES	Arbovirus inh	YopH inh	Mtb bLac sens	Mtb H37Rv	RecA splice inh	others
CC(C)[C@H](N)c1nnc(SC/C=C/c2ccccc2)o1	2	2	6	1%	6.9
S=C(NC1CC1)N1CCCc2ccccc21	.	.	1	.	1.7
O=C(c1ccc(Cn2cc(Br)cn2)o1)n1cccn1	9	7	6	3%	8.6
CCOC(=O)c1sc(NCCNc2nc(C)c(C(=O)OCC)s2)nc1C	3	.	-4	-9%	-0.8	Arbovirus inh repeat=0
O=C1Nc2cc(C(=O)N3CCC4(CC3)OCCO4)ccc2NC1CSCc1cccc(F)c1 (stereo not drawn)	.	.	-3	.	-3.2
COc1ccc(NC2CC(=O)N(c3ccc(C(=O)O)cc3)C2=O)cc1 (stereo not drawn)	2	.	-10	83%	1.0
C=C1CCN([C@H](C(=O)NCc2ccco2)C(C)C)S(=O)(=O)c2ccccc21	.	.	-10	-6%	-4.3
CCOc1ccccc1C(=O)n1nc2nc(C)cc(C)c2c1N	-2	-32	4	3%	-1.6
CC(C)[C@H](NC(=O)c1ccco1)C(=O)Nc1ccc(OC(F)F)cc1	.	.	-6	.	-2.3
CCOC(=O)N1CCN(S(=O)(=O)c2ccc(C(=O)Nc3nnc(CC)o3)cc2)CC1	1	-32	5	-18%	-2.3
O=C(Nc1ccc(N2CCCCCC2)cc1)c1ccccc1Cl	-22	.	2	-8%	1.9
O=C(Nc1cccc(-c2ccc(F)cc2)c1)C1CCCN(Cc2cccnc2)C1 (stereo not drawn)	.	.	7	.	1.4
Cc1ccc2cc(C#N)c(N3CCCC3)nc2c1C	7	27	100	.	.
CCOc1ccc(-c2csc3ncn(-c4ccc(OC)cc4)c(=O)c23)cc1	-9	.	-8	-6%	-0.2
C=CCn1c(CSCc2ccc(F)cc2)n[nH]c1=S	.	.	-19	.	1.2
COc1ccc(OC)c(NC(=O)CN(c2ccc(C(C)C)cc2)S(=O)(=O)c2c(C)noc2C)c1	20	-29	1	-8%	.	Arbovirus inh repeat=0
O=c1c2ccccc2nc(-c2ccccc2)n1CCCn1ccnc1	2	11	-10	1%	0.6
O=C(CN(Cc1ccccc1Cl)C(=O)c1csnn1)NCc1ccccc1	.	.	0	.	-1.6
Cc1ccc(C)c(N(CC(=O)Nc2ccc(-c3nc4ccc(C)cc4s3)cc2)S(C)(=O)=O)c1	1	-46	5	11%	-2.7
Cn1nc(C(F)(F)F)c(C#N)c1N1CCN(c2ccccc2F)CC1	3	-16	-14	-3%	-0.2
CC(C)(C)NC(=O)CN(C(=O)CS(=O)CC(=O)Nc1ccc(F)cc1)c1ccccc1 (stereo not drawn)	5	-8	0	0%	-2.5
O=C(O)Cc1ccc(O)c(O)c1	.	.	4	-15%	-5.2
CCC(C)COC(=O)C(C#N)c1nc2ccccc2nc1N1CCCCC1 (stereo not drawn)	-12	-25	15	11%	9.1
COc1cccc(NC(=O)c2ccc3nsnc3c2)c1	.	.	1	.	1.6
CCOC(=O)c1cc(-c2ccc(OC)cc2)n(CCC(=O)NC2CCN(Cc3ccccc3)CC2)c1C	-27	.	52	0%	2.3
CC(Sc1nnc2ccccn12)C(=O)N1CCc2ccccc2C1 (stereo not drawn)	2	-10	-1	-6%	3.7
CCCCOC1(c2ccccc2)NC(=S)NN=C1c1ccccc1 (stereo not drawn)	9	-4	-6	0%	6.5
Cc1c(C)n(CC(O)CN(CCO)CCO)c2ccccc12 (stereo not drawn)	11	.	4	2%	-2.3
CCN(CC)S(=O)(=O)c1ccc(Oc2ccccc2OC)cc1	.	.	-11	-1%	1.9
COc1ccccc1NC(=O)CC(=O)c1ccccc1	.	.	3	.	2.9
OC(CNCCc1ccccc1)c1ccccc1 (stereo not drawn)	10	-12	13	-6%	-1.7	Arbovirus inh repeat=5
COc1cccc(N2CCN(C(=O)Cn3c(=O)oc4ccccc43)CC2)c1	.	.	-6	.	-0.3
COc1ccc(C(=O)C2CCN(C(=S)NCC3CCCO3)CC2)cc1 (stereo not drawn)	19	.	4	-5%	6.1
CC(C)(C)C(=O)N1CCCC1C(=O)O (stereo not drawn)	-3	8	-1	0%	0.0
O=C(Cc1ccc2c(c1)OCCO2)N1CCN(c2ccccc2)CC1	19	.	-2	4%	-1.7
COc1ccc2nc(NC(=O)c3ccc4ncsc4c3)sc2c1	4	-35	-1	8%	-4.8	Arbovirus inh repeat=-2
Cc1ccc(N2N=C(c3ccc(Br)cc3)CCC2=O)cc1	-36	-2	8	6%	-2.4
Cc1ccc(CNC(=O)CS(=O)CC(=O)O)cc1 (stereo not drawn)	9	-7	-7	-1%	-2.7
O=C(Cc1ccc(-n2cccc2)cc1)NCc1cccs1	-4	-36	7	13%	11
CC1(C)CC(Nc2ccc(C(F)(F)F)cc2[N+](=O)[O-])CC(C)(C)N1	-10	.	-4	2%	3.2
Cc1ccc(C(=O)NNC(=O)c2ccncc2)cc1S(=O)(=O)N1CCCCC1	.	.	-2	.	0.5
Cc1ccc(S(=O)(=O)N(CC(=O)N2CCC(C)CC2)c2cccc(C)c2)cc1	1	-11	2	-1%	3.6
COc1ccc(CCNC(=O)CCCn2c(=O)[nH]c3cc(OC)c(OC)cc3c2=O)cc1OC	0	-23	2	-3%	-3.0
O=C1[C@@H]2[C@@H]3C[C@@H]([C@H]4ON=C(c5ccc(Cl)cc5Cl)[C@@H]34)[C@@H]2C(=O)N1C1CCCCC1	7	-11	0	13%	10
Cc1csc(SCC(=O)NC(=O)C2CCCCC2)n1	4	.	6	0%	-0.2

Continued (3 carried over from the part before).
SMILES	Arbovirus inh	YopH inh	Mtb bLac sens	Mtb H37Rv	RecA splice inh	others
COc1ccc(CCNC(=O)CCCn2c(=O)[nH]c3cc(OC)c(OC)cc3c2=O)cc1OC	0	-23	2	-3%	-3.0
O=C1[C@@H]2[C@@H]3C[C@@H]([C@H]4ON=C(c5ccc(Cl)cc5Cl)[C@@H]34)[C@@H]2C(=O)N1C1CCCCC1	7	-11	0	13%	10
Cc1csc(SCC(=O)NC(=O)C2CCCCC2)n1	4	.	6	0%	-0.2
COc1ccc(Cc2noc(-c3ccccc3)n2)cc1OC	19	.	0	-1%	3.6
CCn1cc(C(=O)N2CCCC(N3CCN(c4cccc(C(F)(F)F)c4)CC3)C2)cn1 (stereo not drawn)	.	.	-5	.	0.8
O=C(O)c1ccc(Oc2c(C(F)(F)F)oc3cc(O)ccc3c2=O)cc1	2	.	-9	-1%	-0.3
C#CCCCc1nc2ccccc2c(=O)n1N	-2	-16	4	3%	-1.0
COC(=O)c1ccc(NC(=O)Cn2nc(C)cc2C)cc1	5	.	4	-1%	-2.2
CCN(CC)c1ccc(/C=N/NC(=S)NC)c(O)c1	-21	.	69	33%	-6.8
O=C1CCc2cc(S(=O)(=O)N3CCC(C(=O)NCc4ccccc4Cl)CC3)ccc2N1	-12	-45	-7	-10%	0.7
CC12CC3(C)CC(C)(C1)CC(C(=O)NCCc1ccc(S(N)(=O)=O)cc1)(C2)C3	.	.	-4	.	1.5
O=C(NC1CCCCCCC1)c1ccc2c(c1)N(Cc1ccc(F)cc1)C(=O)CS2=O (stereo not drawn)	-15	-52	0	0%	-1.3
CCc1ccc(S(=O)(=O)NCc2csc(-c3ccccc3)n2)s1	-2	-50	3	7%	7.7
COc1ccc(N(Cc2cc3cccc(C)c3[nH]c2=O)S(=O)(=O)c2ccc(OC)cc2)cc1	.	.	2	.	-0.6
Cc1ccc(S(=O)(=O)CCc2nnc(NC(=O)c3ccco3)s2)cc1	23	.	-8	-6%	4.3
COc1ccccc1C(=O)NCCC(=O)NN1C(=O)NC2(CCCCC2)C1=O	.	.	-7	.	-0.9
Cc1ccc(O)c(C(=O)CC(=O)c2ccccc2Cl)c1	-15	.	92	?	14
COc1ccc(CCC(=O)Nc2ccc(C)c([N+](=O)[O-])c2)cc1	-5	-9	2	1%	-2.2
O=C(CSc1nc2[nH]ncc2c(=O)[nH]1)c1ccc(Cl)cc1	-2	.	-4	-7%	-0.9
Cc1onc(-c2ccccc2)c1CNS(=O)(=O)c1ccccc1	.	.	-7	-3%	1.9
CC(=O)c1n[nH]nc1NC(=O)c1ccccc1	27	-25	3	0%	5.7
CN(c1ccc(C(=O)Nc2ccccc2C(=O)N2CCOCC2)cc1)S(C)(=O)=O	1	-29	8	3%	-0.2
CCCN1CCN(C(=O)c2cc3c(s2)-c2ccccc2S(=O)(=O)C3)CC1	1	-47	.	-3%	.
CCN(CC)c1ccc(/C=N/O)cc1	-8	.	0	5%	-3.2
CCOC(=O)c1ccccc1NC(=O)c1cccc([N+](=O)[O-])c1	0	.	6	-2%	0.1
Cc1ccc(S(=O)(=O)NNC(=O)C2CCCCC2)cc1	.	.	-2	.	-4.3
COCCCn1c(=S)[nH]c2sc3c(c2c1=O)CCCC3	.	.	-2	.	0.5
COc1cccc(C(O)c2cnc(C(C)C)n2C)c1OC (stereo not drawn)	5	-11	1	-5%	.
CCOC(=O)c1ccc(CNC(=O)C2CCC(=O)N(CCc3ccccc3)C2)o1 (stereo not drawn)	.	.	-3	.	-0.1
COc1ccc(CCNC(=O)C(=O)NCC2OCCN2S(=O)(=O)c2ccc3c(c2)OCCO3)cc1OC (stereo not drawn)	.	.	-3	.	1.8
CCOC(=O)c1c(S(=O)(=O)Nc2ccc(F)cc2C)c(C)n(C)c1C	.	.	2	.	-3.5
Cn1c(SCC(=O)NCC2CCCO2)ncc(C(=O)Nc2ccccc2)c1=O (stereo not drawn)	.	.	70	.	46*
O=C(NC1=C(NC2CCS(=O)(=O)C2)C(=O)c2ccccc2C1=O)c1ccccc1 (stereo not drawn)	-20	.	53	0%	84*
Clc1ccc(Cn2nc(-c3ccccc3)nc2-c2ccccc2)cc1	-2	-30	3	9%	0.8
O=C(Oc1cccc(C(=S)N2CCOCC2)c1)c1ccc([N+](=O)[O-])cc1[N+](=O)[O-]	.	.	58	.	4.8

Random excerpt: two records from the list.
SMILES	Arbovirus inh	YopH inh	Mtb bLac sens	Mtb H37Rv	RecA splice inh	others
Cc1ccc2cc(C#N)c(N3CCCC3)nc2c1C	7	27	100	.	.
O=c1c2ccccc2nc(-c2ccccc2)n1CCCn1ccnc1	2	11	-10	1%	0.6
